AF4-AF9 inh: MLL-AF4/AF9 protein interaction inhibition. AlphaScreen, biotin-AF4 peptide binding to FLAG-AF9. inhibition, % at 10 µM. 350,000 compounds, 0.47% hits;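 active means every replicate reaching a set inhibition limit, whatever the replicate mean, cut at about 25% in these data; inconclusive means mean inhibition reaches that limit but some replicates miss it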;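 further: 0% = plate neutral control median and 100% = total signal loss; the record names both 10 and 1 µM as test concentration; the first replicate is given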
Target sequence (P42568 whole entry, looked up): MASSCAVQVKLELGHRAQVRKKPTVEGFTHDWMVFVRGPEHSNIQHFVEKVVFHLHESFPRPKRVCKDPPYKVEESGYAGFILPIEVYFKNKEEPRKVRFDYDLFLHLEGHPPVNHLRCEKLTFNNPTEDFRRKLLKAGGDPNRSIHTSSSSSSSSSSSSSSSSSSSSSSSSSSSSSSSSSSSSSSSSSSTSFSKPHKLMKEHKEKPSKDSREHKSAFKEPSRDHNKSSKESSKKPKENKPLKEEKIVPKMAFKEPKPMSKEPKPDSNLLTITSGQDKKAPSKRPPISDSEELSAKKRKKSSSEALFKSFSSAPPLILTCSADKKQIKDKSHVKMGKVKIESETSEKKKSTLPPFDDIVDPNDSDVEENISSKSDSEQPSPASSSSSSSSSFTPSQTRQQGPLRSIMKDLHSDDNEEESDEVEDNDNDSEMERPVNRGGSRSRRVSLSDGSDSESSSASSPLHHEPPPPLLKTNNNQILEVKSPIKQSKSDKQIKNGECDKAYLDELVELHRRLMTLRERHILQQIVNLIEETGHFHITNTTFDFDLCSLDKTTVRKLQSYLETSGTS
Calb FLC: affects C. albicans growth with fluconazole. C. albicans CaCi-2 (fluconazole-resistant clinical isolate) + fluconazole, Alamar Blue growth, 48 h. growth inhibition, % (concentration not given with the values). 300,000 compounds, 0.57% hits. AID 1979;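 active means most replicates above 75%; inconclusive means exactly half above 75%; inactive means most below 75%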;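 further: all wells also contain fluconazole at 8 µg/ml as a sub-toxic cotreatment; 0% = median of DMSO wells and 100% = median of geldanamycin control wells; wells of about 8 µL received 7.5 nL stock; the first replicate is given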
ALR H2O2 inh: blocks human ALR sulfhydryl oxidase activity; 290,000 compounds, 3.8% hits; AID 485317; P55789; inhibition, % (no concentration beside the values); purified ALR, DTT oxidation, H2O2 HRP-luminol luminescence;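 active means mean and each replicate at 75% or more; inconclusive means only one of the two met; inactive means neither met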;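 further: stock transfer was 7.5 nL into about 7.5 µL; 0% = neutral wells and 100% = wells with inactivated enzyme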
Target sequence (P55789 whole entry, looked up): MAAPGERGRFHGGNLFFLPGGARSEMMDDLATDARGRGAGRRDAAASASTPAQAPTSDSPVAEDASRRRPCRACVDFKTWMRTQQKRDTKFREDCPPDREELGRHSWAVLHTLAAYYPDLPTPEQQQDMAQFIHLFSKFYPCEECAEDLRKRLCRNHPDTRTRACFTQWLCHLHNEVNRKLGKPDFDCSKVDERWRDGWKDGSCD
FGF22 binding: binders of recombinant human FGF22 by thermal shift | calls only at 9.99 µM | Q9HCT0 | 340,000 compounds, 1.5% hits | SYPRO orange fluorescence; percent of sucrose octasulfate shift, DMSO zero;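 active means melting point raised past a set limit in the mean and every replicate; inconclusive means no clear call; three in four hits are not shown here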
Target sequence (Q9HCT0 whole entry, looked up): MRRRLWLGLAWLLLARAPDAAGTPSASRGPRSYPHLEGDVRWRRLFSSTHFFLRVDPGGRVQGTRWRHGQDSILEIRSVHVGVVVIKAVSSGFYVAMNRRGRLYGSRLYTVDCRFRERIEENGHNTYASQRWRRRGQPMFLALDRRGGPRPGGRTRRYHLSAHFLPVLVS
Beta apoptosis: beta cell apoptosis inhibition. INS-1E cytokine-induced death, ATP luminescence, 48 h; percent of positive-control rescue, neutral wells zero. protection from apoptosis, % (test concentration not listed). 300,000 compounds, 0.8% hits. AID 435005;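 active means all replicates at 75% or more, or half of them and the mean; inconclusive means half reach 75% but not the mean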;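 further: 0% = cytokine-treated negative control wells and 100% = positive control rescue; higher means more ATP so stronger rescue from cytokine killing; wells of about 40 µL received 100 nL stock; the first replicate is given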
rRNA inh HTS: inhibits bacterial ribosomal RNA function over humanized ribosomes; E. coli WT GFP vs humanized-ribosome RFP mutants, fluorescence, 24 h; active compounds read low; DMSO median 0, no signal -100; GFP signal change (wild-type ribosome), % (test concentration not listed); 350,000 compounds, 1.6% hits; AID 720706;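 active means significant combined selectivity score with lowered wild-type GFP, culture density cut under 30%, mutant RFP and density less affected; inactive means any of these conditions unmet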; further: one replicate is shown; some compounds called inactive have numbers as strong as hits
T cruzi inh: blocks replication of Trypanosoma cruzi; T. cruzi beta-gal in NIH3T3, luminescence, 90 h; inhibition, % (concentration not given with the values); 300,000 compounds, 1.4% hits; AID 1885;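 active means mean inhibition across valid replicates above about 55%, limit read from the data; inconclusive means mean below that limit but half or more replicates reach it; inactive means mean below it, under half of replicates reach it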;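 further: signal also drops with host cell toxicity which is not excluded here; 0% = plate median of DMSO wells and 100% = zero luminescence signal; higher percent means less beta-gal luminescence so fewer parasites; stock transfer was 50 nL into about 50 µL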
RanGTP-Impb inh: disruptors of Ran-importin-beta complex formation – biochemical, FRET, CFP-Ran, YFP-importin-beta, homogeneous, primary screen; 300,000 compounds, 1.1% hits; AID 2216; inhibition, % (test concentration not listed); cell-free CFP-Ran/YFP-importin-beta FRET ratio;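 active means most replicates above 15%; inconclusive means exactly half above 15%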;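 further: 0% = DMSO wells and 100% = Ran loaded with GDP instead of GTP; wells of about 40 µL received 100 nL stock; the first replicate is given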
rRNA inh HTS OD600: second read-out of rRNA inh HTS, no call of its own (marks repeat the call); OD600 change, %; measured here: OD600 growth;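 optical density of the mix in the first replicate; 0 = DMSO median and -100 = no signal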
rRNA inh HTS RFP: second read-out of rRNA inh HTS, no call of its own (marks repeat the call); RFP signal change, %; measured here: RFP humanized mutant strains;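 first replicate; 0 = DMSO median and -100 = no signal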
The depositor's hits bear a star; i = inactive; ? = inconclusive; · = not tested or not shown; + = active, no number.

Start of the listing, in advance:
SMILES	AF4-AF9 inh	Calb FLC	ALR H2O2 inh	FGF22 binding	Beta apoptosis	rRNA inh HTS	rRNA inh HTS OD600	rRNA inh HTS RFP	T cruzi inh	RanGTP-Impb inh
CC(c1ccccc1C(O)c1ccccc1)N(C)C (centres undefined)	2.0	2	-15	i	-1	15	2	-9.2	-13	2.9
O=C(CSc1ccccc1F)NNC(=O)c1ccncc1	-0.6	·	21	i	2	15	8	0.5	·	·

The whole of this part, from the first entry:
SMILES	AF4-AF9 inh	Calb FLC	ALR H2O2 inh	FGF22 binding	Beta apoptosis	rRNA inh HTS	rRNA inh HTS OD600	rRNA inh HTS RFP	T cruzi inh	RanGTP-Impb inh
CC(c1ccccc1C(O)c1ccccc1)N(C)C (centres undefined)	2.0	2	-15	i	-1	15	2	-9.2	-13	2.9
O=C(CSc1ccccc1F)NNC(=O)c1ccncc1	-0.6	·	21	i	2	15	8	0.5	·	·
CC(C)(C)c1ccc(-n2ncc3c2CCCC3NC(=O)CCN2CCCO2)cc1 (centres undefined)	-3.2	-8	-6	i	4	-4	-9	-2.0	-1	3.2
COc1ccccc1CNC(=O)COC(=O)CC1CC2CCC1C2 (centres undefined)	-1.8	·	-1	i	-5	-12	-24	-1.4	·	·
Cc1sc(NC(=O)c2ccco2)c(C(Nc2ccccn2)c2ccccc2)c1C (centres undefined)	·	-5	63	·	-8	·	·	·	-10	4.3
Cn1cnnc1Sc1ccc(C(=O)OCC(=O)Nc2cc(Cl)cc(Cl)c2)cc1[N+](=O)[O-]	·	-4	-3	·	-3	·	·	·	-10	-0.9
COCCN1Cc2cccc(C(=O)NC3CCCCCC3)c2C1=O	·	-1	30	·	-5	·	·	·	9	-0.3
Cc1ccc(C(=O)NCc2nnc(SCC(=O)NC(C)c3ccccc3)n2C)cc1 (centres undefined)	-2.0	1	-1	·	-2	9	7	-0.9	-19	0.5
O=C(CN1CSCC1=O)N1CCN(S(=O)(=O)c2cccc(F)c2)CC1	-7.0	·	-2	i	-1	0	6	-0.4	·	·
COc1ccc(NC(=O)CS(=O)CC(=O)NCc2cccc(C(F)(F)F)c2)cc1 (centres undefined)	·	-5	-10	·	-5	·	·	·	-10	1.3
CCCCCC(=O)NNC(=S)NC(=O)c1ccc([N+](=O)[O-])cc1	-3.7	6	88*	i	3	-6	4	3.0	10	-1.2
O=C(CNc1cc(S(=O)(=O)N2CCOCC2)ccc1NCC1CCCO1)Nc1ccccc1F (centres undefined)	2.9	-15	-5	i	1	7	2	0.9	11	5.6
CC1CN(c2oc(-c3ccco3)nc2S(=O)(=O)c2ccccc2)CC(C)O1 (centres undefined)	·	-13	-1	·	-3	·	·	·	-12	3.4
CCOc1ccccc1N1CCN(C(=O)c2ccc3c(c2)OCO3)CC1	0.8	-13	12	i	-2	-1	-6	6.6	4	1.5
S=C(Nc1cccc(Cl)c1)Nc1ccc2c(c1)OCCO2	2.0	-15	-21	i	-1	-6	-6	2.0	-26	0.9
COc1ccc(N2CCN(C(=O)c3ccc(CNc4c(N5CCOCC5)c(=O)c4=O)cc3)CC2)cc1	3.3	7	·	i	-7	-3	-5	-9.9	-9	-3.4
CCCN1CCC(NC(=O)Cc2ccccc2OC)CC1	4.3	-1	-1	i	1	13	19	1.8	-2	-2.2
CN(C)CCN1C(=O)C(O)=C(C(=O)c2ccco2)C1c1ccccc1F (centres undefined)	·	13	·	·	-2	·	·	·	2	-6.6
CC(C(=O)NCc1ccccc1)N1C(=O)C2CC=C(Cl)CC2C1=O (centres undefined)	·	-13	2	·	-2	·	·	·	-25	1.5
COc1ccc(-c2cc(C(=O)N3CCN(c4ccc(F)cc4)CC3)no2)cc1	0.8	0	1	i	-5	5	6	1.2	-1	?
COc1ccc(C2CC(c3cccc(C)c3)n3nc(N)nc3N2)cc1 (centres undefined)	-1.5	2	-5	i	?	10	6	-0.2	10	-3.7
Cc1cc(=O)c(C(=O)Nc2cccc(N3CCCC3=O)c2)nn1-c1ccccc1Cl	1.8	·	-12	i	-4	0	-4	0.2	·	·
CC1(C)C2CCC(C2)C1C/C=N/NC(N)=S (centres undefined)	-2.5	-35	1	·	11	7	11	0.9	41	0.4
CCOc1ccccc1CNC(=O)CCCn1ncn2c(cc3occc32)c1=O	2.1	-24	6	i	22	5	0	-1.6	7	2.4
Cc1nc(-c2cccc(NS(=O)(=O)c3cccc4ccccc34)c2)cs1	·	-7	-6	·	-11	·	·	·	1	2.9
CCc1cc(=O)oc2cc(C)cc(OC(C)C(=O)NC3CCN(Cc4ccccc4)CC3)c12 (centres undefined)	4.7	-3	0	i	2	-1	1	1.9	46	2.6
CCOC(=O)C1=C(COC(=O)CC(C)c2ccccc2)NC(=O)NC1C (centres undefined)	1.9	·	1	i	-5	0	2	0.6	·	·
CC(=O)c1ccc(N2CCN(C(=O)CCCc3nc4ccccc4s3)CC2)cc1	-0.6	-15	-4	i	7	2	2	-0.1	-3	2.6
Cc1ccccc1C(=O)Nc1ccccc1-c1nnn(CC(=O)Nc2ccc3c(c2)OCCO3)n1	·	-16	-12	·	2	·	·	·	10	-1.1
COc1ccc(N/C=C2/Sc3ccccc3NC2=O)cc1	4.1	-6	16	i	9	-5	-3	3.0	68*	0.5
O=C(CSc1n[nH]c(-c2cccnc2)n1)Nc1ccc([N+](=O)[O-])cc1Br	0.5	14	0	i	5	-2	0	-0.5	3	0.5
COc1ccccc1CNC(=O)COC(=O)c1ccc(S(=O)(=O)N2CCCC2)cc1	·	-6	-1	·	-4	·	·	·	-1	2.0
COc1ccc2nc(NC(=O)Cn3cnc4ccccc4c3=O)sc2c1	-3.9	2	-3	i	1	-4	-4	-3.9	15	0.3
O=C(NC(=S)Nc1ccc2cn[nH]c2c1)c1ccccc1	-0.4	57	-10	·	-2	0	7	-2.4	9	1.0
COc1ccc(NC(=O)c2[nH]ncc2[N+](=O)[O-])cc1	-1.6	52	0	+	-8	0	10	-1.3	-2	-2.5
Cc1nn(-c2ccccc2)c(C)c1C(=O)OCC(=O)NC(=O)NC1CCCC1	·	-2	13	·	-8	·	·	·	10	-0.5
COc1cc(NC(=O)c2ccc3nsnc3c2)cc(OC)c1OC	-10	-3	-6	i	-4	-1	10	-0.6	-4	0.4
CCCOc1ccc(Cc2nn[nH]n2)cc1	·	-8	-10	·	2	·	·	·	-5	?
CC(C)c1nc(SCC(=O)Nc2cccc(S(N)(=O)=O)c2)n[nH]1	·	0	0	·	-7	·	·	·	-8	3.0
CCN(Cc1ccccc1)C(=O)c1cc2cc(OC)c(OC)cc2[nH]1	-1.8	1	·	i	·	1	-6	4.3	-9	1.7
c1ccc2nc3c(nc2c1)CCc1nonc1-3	·	-2	3	·	2	·	·	·	14	?
CS(=O)(=O)N(CC(=O)N1CCCCC1)Cc1ccc(Cl)cc1	·	1	·	·	-2	·	·	·	-6	?
COc1cc(NC(=S)N2CCN(CCO)CC2)c(OC)cc1Cl	-2.0	8	-60	·	-1	9	4	0.5	-6	3.8
CS(=O)(=O)N(CC(=O)NC1CCCC1)C1CCCCC1	3.7	-6	1	·	-1	12	14	5.8	-5	-0.4
Cc1ccc(/C=N/NC(=O)c2ccc(C(=O)N/N=C/c3ccc(C)s3)o2)s1	·	4	2	·	3	·	·	·	-7	?
COc1ccc(OC)c(Nc2nc(-c3sc(N)nc3C)cs2)c1	·	-2	-55	·	5	·	·	·	-1	4.9
Cc1cccc[n+]1CC(=O)c1ccc2c(c1)OCCO2	-1.4	?	12	i	1	14	14	1.7	-3	-1.6
O=C(NCC1CCCO1)c1nn2cccnc2c1Cl (centres undefined)	·	-7	-13	·	3	·	·	·	-14	4.4
CC(=O)Oc1ccc(C(=O)Nc2nccs2)cc1	-1.3	-8	13	i	·	3	9	1.6	-10	0.0
Cc1cccc(C(=O)NCC(=O)N2CC=C(c3ccccc3)CC2)c1	0.0	·	10	i	3	-30*	-8.8*	0.1*	·	·

Continuation:
SMILES	AF4-AF9 inh	Calb FLC	ALR H2O2 inh	FGF22 binding	Beta apoptosis	rRNA inh HTS	rRNA inh HTS OD600	rRNA inh HTS RFP	T cruzi inh	RanGTP-Impb inh
C(=N\N1CCN(C2c3ccccc3-c3ccccc32)CC1)/c1ccccn1	·	-29	-16	·	4	·	·	·	20	1.8
COc1cc(OC)cc(-n2nnnc2SCC(=O)NC2CCCC2)c1	·	-6	·	·	1	·	·	·	8	?
NCCCCCNC(=O)/C=N\O	·	-17	-6	·	-6	·	·	·	-9	5.0
COCCn1cnnc1SCC(=O)Nc1sc2c(c1C#N)CCC2	0.4	·	2	i	0	5	4	1.9	·	·
Cc1ccc(OCC(=O)Nc2ccc3c(c2)OCCO3)cc1C	-4.3	-32	-9	i	4	-31	-49	-4.1	-7	0.3
COc1ccc(CN2C(=O)c3cccnc3C2=O)cc1S(=O)(=O)N1CC(C)Oc2ccccc21 (centres undefined)	5.0	0	1	i	-7	8	6	0.8	-10	0.0
CC(C)(C)c1ccc(-c2csc(NC(=O)CN3C(=O)NC4(CCCCC4)C3=O)n2)cc1	·	-3	·	·	35	·	·	·	20	-4.3
COc1ccc(-n2nc(C(=O)NCC(=O)N3CCCC(C)C3)c3ccccc3c2=O)cc1Cl (centres undefined)	2.6	-12	-3	i	-3	-6	-8	1.9	14	0.4
Cc1ccc(OCC(=O)Nc2ccc(Cl)cc2)c([N+](=O)[O-])n1	9.1	·	-2	i	-1	-4	13	-1.8	·	·
CCN(CC)S(=O)(=O)c1cc(NC(=O)c2ccc(-n3cncn3)c([N+](=O)[O-])c2)ccc1C	3.7	1	-8	i	·	-10	-3	2.5	4	-2.8
O=C1OC(Nc2ccc3ncccc3c2)c2ccccc21 (centres undefined)	·	25	33	·	·	·	·	·	-1	-0.1
Cc1ccc(NC(=O)c2nc3nccc(C)n3n2)cc1S(=O)(=O)N1CCCCC1	-2.6	·	·	i	-6	-8	5	0.0	·	·
COC(=O)c1ccc(CSc2nnc(NC(=O)C3CC(=O)N(c4ccc5c(c4)OCCO5)C3)s2)cc1 (centres undefined)	·	20	-8	·	-3	·	·	·	-23	6.3
O=C(Cn1c(CO)nc2ccccc21)Nc1ccc2c(c1)OCCCO2	1.4	·	-2	i	-2	0	-9	9.8	·	·
COC(=O)c1ccc(/C=C2/SC(=S)N(CCCC(=O)Nc3ccc(O)cc3)C2=O)cc1	-1.6	13	·	i	-25	-3	-2	-2.2	9	-0.1
C=C(C)CSc1nc2c(cc1C#N)CCC2	·	-5	14	·	-4	·	·	·	-11	?
Cc1cc2nc(-c3cccnc3SCC(=O)NC(C)C)[nH]c2cc1C	-1.5	2	-16	i	20	15	8	4.7	15	-6.9
C[C@H]1COC(=O)[C@H](Cc2ccc(F)cc2)C/C=C\C[C@H](CC(=O)NCCO)C(=O)N1	-55	·	2	i	-1	0	-1	5.4	·	·
CC1CCCCN1C(=O)CSc1nnc(-c2ccco2)o1 (centres undefined)	-3.8	-3	·	i	-9	5	-7	-0.5	·	-0.7
NNC(=O)c1sc2cc(C(F)(F)F)cnc2c1-c1cccnc1	0.7	6	-10	·	2	6	13	10	2	-5.2
O=C(N/N=C/c1ccncc1)c1sc2ccccc2c1Cl	-1.2	1	2	i	-1	-13	-10	-4.1	3	1.1

Screening results as filed in PubChem.

An excerpt. The share of hits here may be higher or lower than overall.
